AF4-AF9 inh: inhibitors of AF4 peptide binding to AF9, primary screen, biochemical, AlphaScreen, biotin-AF4 peptide, FLAG-AF9, single point; 350,000 tested, 0.47% active; inhibition, % at 10 µM; Protein AF-9 (Homo sapiens), P42568;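 active = every replicate reaching a set inhibition limit, whatever the replicate mean, cut at about 25% in these data; inconclusive = mean inhibition reaches that limit but some replicates miss it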;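 also: 0% = plate neutral control median and 100% = total signal loss; the record names both 10 and 1 µM as test concentration; the first replicate is given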
Target sequence (P42568 whole entry, looked up): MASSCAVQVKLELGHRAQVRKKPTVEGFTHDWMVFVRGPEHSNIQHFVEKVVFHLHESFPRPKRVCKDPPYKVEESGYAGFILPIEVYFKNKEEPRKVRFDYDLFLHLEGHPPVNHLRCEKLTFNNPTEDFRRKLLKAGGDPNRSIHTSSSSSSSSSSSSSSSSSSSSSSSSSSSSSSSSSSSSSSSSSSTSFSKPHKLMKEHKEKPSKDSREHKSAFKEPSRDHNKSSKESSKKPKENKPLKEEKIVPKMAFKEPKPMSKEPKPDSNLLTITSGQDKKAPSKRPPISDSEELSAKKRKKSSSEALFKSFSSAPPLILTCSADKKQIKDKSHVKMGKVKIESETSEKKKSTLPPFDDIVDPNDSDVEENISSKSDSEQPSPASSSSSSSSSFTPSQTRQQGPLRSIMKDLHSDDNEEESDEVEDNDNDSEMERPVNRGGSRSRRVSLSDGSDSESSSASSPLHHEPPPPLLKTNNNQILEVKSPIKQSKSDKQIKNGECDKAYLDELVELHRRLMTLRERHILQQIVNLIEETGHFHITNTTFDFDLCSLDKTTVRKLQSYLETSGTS
FGF22 binding: binders of human FGF22 protein, primary screen, FGF22 synaptogenesis inhibitor project, biophysical, thermal shift, single point; Fibroblast growth factor 22 (Homo sapiens), Q9HCT0; recombinant FGF22 thermal shift, SYPRO orange fluorescence; percent of sucrose octasulfate shift, DMSO zero; calls only at 9.99 µM; 340,000 tested, 1.5% active;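 active = melting point raised past a set limit in the mean and every replicate; inconclusive = no clear call; three in four hits are not shown here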
Target sequence (Q9HCT0 whole entry, looked up): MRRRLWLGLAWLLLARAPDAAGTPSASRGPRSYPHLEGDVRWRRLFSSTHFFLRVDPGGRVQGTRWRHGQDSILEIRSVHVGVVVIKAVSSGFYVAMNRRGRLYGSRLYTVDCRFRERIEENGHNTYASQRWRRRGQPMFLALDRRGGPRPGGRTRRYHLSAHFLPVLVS
Vif A3G: inhibitors of Vif binding to APOBEC3G peptide, primary screen, biochemical, TR-FRET, GST-Vif 1-94, biotin-A3G peptide, dose response retest (AID 1117319) | Virion infectivity factor (Human immunodeficiency virus type 1 group M subtype B (isolate … | inhibition, %; hits with a dose series show IC50 in µM | 260,000 tested, 0.57% active | TR-FRET GST-Vif / biotin-A3G peptide binding; higher % means a stronger effect; test concentration not given here; strong numbers were not always called active;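 active = above the screen mean plus three standard deviations and confirmed in dose response; inconclusive = results disagree or hit not tested in dose response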;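 also: Vif residues 1-94 fused to GST binding biotinylated APOBEC3G peptide 110-148; 0% = full assay without inhibitor and 100% = GST in place of GST-Vif; retest series ran down from 100 µM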
HNF4A DNA FP: change in binding of human HNF4A to DNA, primary screen, biochemical, fluorescence polarization, FITC-DNA; Hepatocyte nuclear factor 4-alpha (Homo sapiens), P41235; 360,000 tested, 0.3% active; 1 h; activity change, % at 10 µM; in the data active = activity change above about 30%, passing the limit was not always enough;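 also: controls were the assay level and a saturating level of protein; the project sought stronger binding though the title names inhibitors; some compounds called inactive have numbers as strong as hits; positive values seem to mean higher polarization but the record does not say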
Ecoli growth: E. coli growth inhibition, primary screen, OD600. OD600 absorbance (no concentration beside the values). AID 1053175, 2014. Escherichia coli growth, 23 h; hits give low values. 330,000 tested, 0.21% active;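 active = OD600 absorbance below the run mean of sample wells minus 3.6 SD, in any replicate, cut at about 0.56 in these data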;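 also: stock transfer was 300 nL into about 60 µL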
UCH37 inh: inhibitors of human UCH37 deubiquitinase, primary screen, biochemical, Ub-AMC cleavage, fluorescence; inhibition, % (no concentration beside the values); Ubiquitin carboxyl-terminal hydrolase isozyme L5 (Homo sapiens), Q9Y5K5; 330,000 tested, 0.33% active; purified proteasome/UCH37;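 active = mean of two replicates above 20%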;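 also: 0% = compound-free wells with enzyme and 100% = wells lacking proteasome; stock transfer was 100 nL into about 20 µL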
Target sequence (Q9Y5K5 whole entry, looked up): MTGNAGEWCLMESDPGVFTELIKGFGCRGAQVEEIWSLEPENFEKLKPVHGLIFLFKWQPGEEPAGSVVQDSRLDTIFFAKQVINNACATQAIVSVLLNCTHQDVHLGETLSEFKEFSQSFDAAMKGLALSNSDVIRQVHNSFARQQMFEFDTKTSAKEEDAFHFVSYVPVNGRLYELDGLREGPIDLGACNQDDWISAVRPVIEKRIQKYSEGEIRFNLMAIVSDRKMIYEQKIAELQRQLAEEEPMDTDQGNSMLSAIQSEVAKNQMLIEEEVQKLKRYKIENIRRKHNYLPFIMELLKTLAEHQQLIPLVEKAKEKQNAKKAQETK
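Reagent: Ub-AMC substrate; assay system: Proteasome-associated human UCH37 deubiquitinase; controls: no-proteasome and no-compound wells; read-out: % inhibition of Ub-AMC cleavage fluorescence; timing: 30 min preincubation with enzyme, 25 min cleavage at room temperature; signal: AMC fluorescence from Ub-AMC cleavage, excitation 355 nm, emission 460 nm; buffer or medium: Tris-HCl pH 7.4 plus ovalbumin, ATP-MgCl2, DTT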
RanGTP-Imp inh: inhibitors of RanGTP-importin-beta interaction, primary screen, biochemical, FRET, CFP-Ran, YFP-importin-beta, homogeneous | cell-free CFP-Ran/YFP-importin-beta FRET ratio | inhibition, % (no concentration beside the values) | Ran GTPase (GTP-bound) - importin-beta complex | 300,000 tested, 1.1% active | AID 2216, 2009;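 active = most replicates above 15%; inconclusive = exactly half above 15%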;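 also: 0% = DMSO wells and 100% = Ran loaded with GDP instead of GTP; wells of about 40 µL received 100 nL stock; the first replicate is given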
* marks the source's active call; other numbers are inactive results; i = inactive; ? = inconclusive; nt = not tested or not shown; & = joins results of further samples. Only part of the results is shown. The share of hits here may be higher or lower than overall.

The first 4 entries (preview)
SMILES	AF4-AF9 inh	FGF22 binding	Vif A3G	HNF4A DNA FP	Ecoli growth	UCH37 inh	RanGTP-Imp inh
COc1ccc(-n2ncc3c(N4CCC(C)CC4)ncnc32)cc1	8.2	i	nt	-0.9	0.75	-5.4	-1.8
Cn1c(SCC(=O)N2CCc3ccccc32)nc2cccnc21	nt	nt	1%	-0.1	0.73	1.8	-6.3
COc1cc(C(=O)Nc2nc3ccccc3s2)ccc1OCc1c(C)noc1C	nt	nt	-12%	-1.2	0.65	-2.1	-0.7
CC(=O)N(CC(=O)O)c1ccccc1	-1.0	i	?	2.1	0.71	1.2	0.9

Main list (from the top)
SMILES	AF4-AF9 inh	FGF22 binding	Vif A3G	HNF4A DNA FP	Ecoli growth	UCH37 inh	RanGTP-Imp inh
COc1ccc(-n2ncc3c(N4CCC(C)CC4)ncnc32)cc1	8.2	i	nt	-0.9	0.75	-5.4	-1.8
Cn1c(SCC(=O)N2CCc3ccccc32)nc2cccnc21	nt	nt	1%	-0.1	0.73	1.8	-6.3
COc1cc(C(=O)Nc2nc3ccccc3s2)ccc1OCc1c(C)noc1C	nt	nt	-12%	-1.2	0.65	-2.1	-0.7
CC(=O)N(CC(=O)O)c1ccccc1	-1.0	i	?	2.1	0.71	1.2	0.9
COc1cccc(C(C)(O)c2nc(-c3ccc(OC)nc3)cs2)c1 (stereo not drawn)	-2.5	i	nt	-4.0	nt	nt	nt
COc1ccccc1NC(=O)NC1(C(=O)N2CCC(O)CC2)CCCCC1	nt	nt	5%	-0.1	0.71	0.1	-6.3
CN1CCOc2c1cnn(CCO)c2=O	-2.8	i	nt	-1.5	nt	nt	nt
O=C(Nc1cccc(NC(=O)c2cccc([N+](=O)[O-])c2)n1)c1cccc([N+](=O)[O-])c1	1.6	i	0%	-1.0	0.69	-0.2	2.3
Cc1ccc(S(=O)(=O)N2CCN(C(=O)CSc3nnc(-c4ccco4)o3)CC2)cc1	nt	nt	3%	-2.7	0.71	2.0	-3.5
COc1cc(-c2nnc(COC(=O)CSc3cc(C)c4ccccc4n3)o2)cc(OC)c1OC	nt	nt	0%&0%	2.7	0.68	3.2	2.9
NS(=O)(=O)c1ccc(CNC(=O)c2ccc(Br)o2)cc1	nt	nt	4%	-1.7	0.68	2.6	-5.5
COc1ccc(N2CCN(C(=O)CCNS(=O)(=O)c3ccc(C)cc3)CC2)cc1	3.8	i	nt	7.6	0.69	2.9	?
COc1ccc(-n2c(C)cc(C=O)c2C)cc1Cl	nt	nt	7%	1.5	0.69	7.0	-0.3
COc1ccc(/C=N/N(C)C2=NS(=O)(=O)c3ccccc32)cc1OC	-0.5	i	-3%	0.2	nt	nt	8.2
CCOC(=O)N1CCN(C(=O)c2ccc3c(=O)n(CCc4ccccc4)c(=S)[nH]c3c2)CC1	nt	nt	-6%	2.0	0.77	1.3	1.5
COc1ccc(NC(=S)N2CCc3cc(OC)c(OC)cc3C2)cc1	-5.2	i	?	-0.4	0.62	-3.0	-1.8
COc1ccc(OC)c(Nc2nc(N)nc(-c3cc4ccccc4o3)n2)c1	nt	nt	3%	0.4	0.76	-5.4	-9.2
Cc1ccc2nc(-c3sc4nc(C)cc(C)c4c3N)[nH]c2c1	nt	nt	-13%	-1.7	0.69	-95	-2.0
CC(C)OP(=O)(c1ccc(N(C)C)cc1)C(O)c1ccccc1 (stereo not drawn)	nt	nt	5%	-0.3	0.68	2.8	0.1
COCc1[nH][nH]c(=O)c1C=Nc1ccc(Cl)cc1	nt	nt	4%	-2.1	0.68	9.0	1.6
CCC1Sc2ccccc2N(CC(=O)NC2CCCCC2)C1=O (stereo not drawn)	0.6	i	-3%	0.5	0.67	-0.8	-2.6
Cc1noc(C)c1NC(=O)N(C)C[C@H]1OCCCC[C@@H](C)Oc2ccc(NS(=O)(=O)c3ccccc3)cc2C(=O)N([C@H](C)CO)C[C@@H]1C	-1.3&-4.9	i	10%	1.3	nt	nt	nt
CCCCNC(=O)c1nc(C2CCN(S(=O)(=O)c3c(F)cccc3F)CC2)oc1-c1cccc(C(F)(F)F)c1	-4.7	i	nt	1.0	nt	nt	nt
COc1ccc(OCC#CCn2ccnc2)cc1	2.2	i	2%	2.1	0.64	0.0	-4.7
O=[N+]([O-])c1cccc(C=Nc2cc3c(cc2Br)OCCO3)c1	0.1	i	nt	-0.1	0.7	3.0	nt
Next records follow.
SMILES	AF4-AF9 inh	FGF22 binding	Vif A3G	HNF4A DNA FP	Ecoli growth	UCH37 inh	RanGTP-Imp inh
OC[C@@H]1CN(CCN2CCOCC2)C[C@H](n2cnc3c(NC4CC4)ncnc32)O1	-2.9	i	nt	-2.4	nt	nt	nt
CN(CC(=O)Nc1cccc(F)c1)C(=O)c1sc2ccccc2c1Cl	3.5	i	0%	-1.0	0.69	-2.0	nt
Cc1noc(C)c1-c1ccc2nc[nH]c(=O)c2c1	-5.0	i	nt	0.1	0.64	-1.7	-3.0
COC(=O)c1ccc(CSC(=N)N)o1	-1.7	i	11%	3.8	0.69	8.5	3.9
CCOC(=O)C1CCN(C(=O)COc2ccc(S(=O)(=O)NC(C)(C)C)cc2)CC1	nt	nt	6%	-1.1	0.7	0.5	2.2
Cc1ccc(N2C(=O)C3ON(c4ccccc4)C(CC(C)C)C3C2=O)cc1 (stereo not drawn)	-2.1	i	nt	9.6	0.65	5.7	1.3
O=C(CSc1nnnn1C1CCCC1)Nc1ccc2c(c1)OCO2	nt	nt	1%	-4.0	0.67	0.4	-4.2
O=c1cc(N2CCCC2)c(-c2ccccc2)n[nH]1	-0.4	i	-7%	3.6	0.67	5.5	-1.2
COc1cc(NC(=O)C2CCCN(c3ncnc4c3nc3n4CCCCC3)C2)cc(OC)c1OC (stereo not drawn)	2.1	i	nt	0.5	0.66	0.8	-0.4
Cc1c(N/C(=N/S(=O)(=O)c2ccccc2)c2ccc(Cl)cc2)c(=O)n(-c2ccccc2)n1C	nt	nt	nt	0.3	0.66	4.4	1.2
COc1cccc(OCCNC(=O)c2cc(OC)c(OC)c(OC)c2)c1	-3.4	i	9%	5.8	0.65	1.4	?
CC(C)n1cnc2c(NCc3ccccc3)cc(Cc3ccc(F)cc3)cc21	8.5	i	nt	-1.7	nt	nt	nt
COc1ccc(Cl)cc1NC(=O)CN(C)C(=O)c1ccc(COc2ccccc2)cc1	0.6	i	-2%	3.6	0.6	1.1	-1.5
c1ccc2[nH]c(-c3cnco3)cc2c1	-0.5	i	nt	9.3	0.65	-3.6	7.9
O=C(CCN1CCCCO1)NC1CCCc2c1cnn2-c1ccc(F)cc1F (stereo not drawn)	-3.9	i	nt	0.8	nt	nt	nt
Cc1ccc(N=Nc2c(=O)[nH]n3c(C)cc(C)nc23)cc1	nt	nt	7%	3.2	0.69	7.9	-12
CC1=C(CCN2CCN(C3CCCC3)C(CCO)C2)C(C)(C)CCC1 (stereo not drawn)	4.0	i	12%	-1.5	0.68	3.3	-3.0
O=C(CSc1ncccn1)N/N=C/c1cccs1	nt	nt	0%	0.5	nt	nt	2.2
CN(C)c1ccc(-c2ccnc3c2CC(C)(C(=O)Nc2ccc(Cl)c(C(F)(F)F)c2)O3)cc1 (stereo not drawn)	0.0	i	nt	8.0	nt	nt	nt
CCOC(=O)C1=C(C)N(C)C(=O)NC1c1ccc2c(c1)OCO2 (stereo not drawn)	3.1	i	2%	-1.2	0.68	7.0	-3.9
COc1cc(O)c2c(=O)c3c(O)ccc(O)c3oc2c1	3.3	i	nt	-6.8	0.71	1.7	nt
O=C(c1cc2cc(Cl)ccc2[nH]1)N1CCN(Cc2ccc3c(c2)OCO3)CC1	1.7	i	nt	4.8	0.68	2.5	-2.4
CCSc1nnc(NC(=O)CSc2nc3c(c(=O)n2-c2ccccc2)SCC3)s1	nt	nt	?	0.8	0.76	5.0	2.7
CCOC(=O)c1cc(-c2ccc(C)cc2)nc2nc(SC)[nH]c(=O)c12	nt	nt	1%	1.5	0.68	-173	3.0
C=CCn1c(=O)c(C(=O)NCCNCC)c(O)c2ccccc21	nt	nt	23%	0.4	0.66	1.7	-6.7
Next results.
SMILES	AF4-AF9 inh	FGF22 binding	Vif A3G	HNF4A DNA FP	Ecoli growth	UCH37 inh	RanGTP-Imp inh
Cc1ccc(S(=O)(=O)Nc2cc(=O)[nH]c(SCC(=O)Nc3cccc(C(F)(F)F)c3)n2)cc1	-1.4	i	nt	3.5	0.67	1.7	-0.5
Cc1ccc(C)c(S(=O)(=O)N2CCN(Cc3ccc(O)c4ncccc34)CC2)c1	82*	i	-9%	2.1	0.66	6.1	6.9
Cc1cccc(/C(N)=N/OC(=O)c2ccc(Cl)cc2Cl)c1	-1.9	i	nt	-0.7	0.66	1.8	4.8
Cn1c(=O)[nH]c(=O)c2c1nc(SCC(=O)O)n2CCOc1ccccc1	1.5	i	1%	0.2	0.71	4.8	-1.5
Cc1ccc(S(=O)(=O)c2c(N)n(CCCO)c3nc4ccccc4nc23)cc1	nt	nt	-1%	0.9	0.71	-241	7.6
Cc1ccc(-n2cc3c(-c4cccc(Br)c4)nnc(C)c3n2)cc1	nt	nt	-17%	119	0.64	3.7	-9.2
c1ccc(-c2noc(CC3CCCCC3)n2)nc1	0.1	i	nt	1.1	0.69	3.7	-2.4
CCc1ccc(C(=O)COC(=O)CNC(=O)Cc2ccccc2)cc1	-0.6	i	nt	-0.5	nt	nt	-0.5
Cn1c(=O)cc(OCC(=O)NCCCN2CCN(Cc3ccccc3)CC2)c2ccccc21	-1.4	nt	4%	3.6	0.7	0.0	-4.1
COc1ccc(NC(=O)Cn2cc(S(=O)(=O)Cc3ccccc3)c3ccccc32)c(OC)c1	-12	i	12%	4.5	0.7	4.9	-2.0
Cc1ccc(C(=O)CCC(=O)N2CCN(c3ccccc3O)CC2)cc1	-0.6	i	6%	-0.7	0.65	4.6	4.2
COc1ccc(N2CCN(S(=O)(=O)CCNC(=O)COc3ccccc3C)CC2)cc1	-6.1	i	7%	-2.2	0.63	4.4	0.9
CCN(CC)CCCNC(=O)C1c2ccccc2C(=O)N1Cc1ccc(C)cc1 (stereo not drawn)	nt	nt	-6%	2.9	0.7	2.9	2.2
O=C(Nc1ccccc1)C1C2CCCCC21 (stereo not drawn)	1.4	i	nt	1.7	0.63	3.3	-0.9
Cc1nc2nc(CCNS(=O)(=O)c3ccc(Cl)cc3)cn2nc1C	-2.7	i	nt	0.5	nt	nt	18*
CC1(CCl)N([O-])C2=C(CCCC2)[N+]1=O (stereo not drawn)	0.4	i	8.5µM*	-5.4	0.62	6.6	3.0
CCN(CC)c1ccc(CNc2ccc(Br)cn2)cc1	nt	nt	6%	-4.8	0.75	1.4	-2.9
CCOC(=O)CNC(=O)CSc1nnc(-c2ccncc2)n1-c1ccc(Cl)cc1	nt	nt	-4%	1.4	0.71	-1.1	-3.4
COc1cccc(C(=O)CSc2nnc(-c3cc(OC)c(OC)c(OC)c3)o2)c1	nt	nt	-19%	2.3	0.68	2.5	7.8
O=C(CNC(=O)c1ccc(Cl)cc1)OCC(=O)c1ccccc1	-1.1	i	4%	1.8	0.7	3.9	-0.4
COc1ccc(C)cc1NC(=S)N1CCN(c2ccccn2)CC1	nt	nt	nt	2.2	0.71	3.6	-1.1

Bioassay records deposited in PubChem by several laboratories.
